# Vif TR-FRET: inhibitors of Vif binding to APOBEC3G peptide, primary screen, biochemical, TR-FRET, GST-Vif 1-94, biotin-A3G peptide, dose response retest (AID 1117319); 260,000 compounds, 0.57% hits; inhibition, %; hits with a dose series show IC50 in µM; TR-FRET GST-Vif / biotin-A3G peptide binding; higher % means a stronger effect; test concentration not given here; strong numbers were not always called active;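 active = above the screen mean plus three standard deviations and confirmed in dose response; inconclusive = results disagree or hit not tested in dose response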;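 also: Vif residues 1-94 fused to GST binding biotinylated APOBEC3G peptide 110-148; 0% = full assay without inhibitor and 100% = GST in place of GST-Vif; retest series ran down from 100 µM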
# Calb FLC: affects C. albicans growth with fluconazole; 300,000 compounds, 0.57% hits; growth inhibition, % (test concentration not listed); C. albicans CaCi-2 (fluconazole-resistant clinical isolate) + fluconazole, Alamar Blue growth, 48 h; AID 1979;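 active = most replicates above 75%; inconclusive = exactly half above 75%; inactive = most below 75%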;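 also: all wells also contain fluconazole at 8 µg/ml as a sub-toxic cotreatment; 0% = median of DMSO wells and 100% = median of geldanamycin control wells; wells of about 8 µL received 7.5 nL stock; the first replicate is given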
# LANA-H2B inh: blocks KSHV LANA binding to histone H2A/H2B | Q9QR71 | cell-free LANA-H2A/H2B peptide, fluorescence polarization | inhibition, % (no concentration beside the values) | 320,000 compounds, 0.6% hits; in the data active = inhibition mostly above about 10%, no sharp cut-off; inactive = mostly below about 6.7%;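 also: stock transfer was 7.5 nL into about 10 µL; 0% = median of vehicle wells and 100% = median of positive control wells; one replicate is shown; the record names a cut of 25% in any replicate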
# Beta2AR agonist: activates human beta-2 adrenergic receptor causing internalization. response, % (test concentration not listed). AID 504454. P07550. 340,000 compounds, 0.43% hits. Am2.2-beta2AR cells, FAP receptor internalization, flow cytometry; reference of the scale not given here;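 active = response above a set limit, near 3 SD of response in nonfluorescent compounds, cut at about 42% in these data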;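 also: stock transfer was 100 nL into about 11 µL; a reference agonist was the positive control; negative values mostly stem from fluorescent compounds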
# Target sequence (P07550 whole entry, looked up): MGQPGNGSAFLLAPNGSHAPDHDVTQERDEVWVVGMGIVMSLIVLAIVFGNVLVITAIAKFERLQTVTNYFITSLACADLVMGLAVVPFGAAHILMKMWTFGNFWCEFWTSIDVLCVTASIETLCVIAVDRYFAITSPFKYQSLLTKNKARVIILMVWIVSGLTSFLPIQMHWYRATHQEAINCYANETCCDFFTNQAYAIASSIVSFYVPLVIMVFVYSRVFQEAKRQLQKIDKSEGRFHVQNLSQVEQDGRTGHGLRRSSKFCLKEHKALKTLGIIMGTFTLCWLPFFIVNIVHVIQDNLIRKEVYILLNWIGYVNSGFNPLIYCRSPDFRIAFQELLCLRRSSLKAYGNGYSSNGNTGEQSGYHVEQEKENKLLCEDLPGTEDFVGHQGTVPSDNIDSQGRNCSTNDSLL
# HNF4A DNA FP: change in binding of human HNF4 alpha to DNA. 360,000 compounds, 0.3% hits. HNF4a-FITC DNA binding, fluorescence polarization, 1 h. P41235. activity change, % at 10 µM; in the data active = activity change above about 30%, passing the limit was not always enough;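 also: controls were the assay level and a saturating level of protein; the project sought stronger binding though the title names inhibitors; some compounds called inactive have numbers as strong as hits; positive values seem to mean higher polarization but the record does not say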
# Target sequence (P41235 whole entry, looked up): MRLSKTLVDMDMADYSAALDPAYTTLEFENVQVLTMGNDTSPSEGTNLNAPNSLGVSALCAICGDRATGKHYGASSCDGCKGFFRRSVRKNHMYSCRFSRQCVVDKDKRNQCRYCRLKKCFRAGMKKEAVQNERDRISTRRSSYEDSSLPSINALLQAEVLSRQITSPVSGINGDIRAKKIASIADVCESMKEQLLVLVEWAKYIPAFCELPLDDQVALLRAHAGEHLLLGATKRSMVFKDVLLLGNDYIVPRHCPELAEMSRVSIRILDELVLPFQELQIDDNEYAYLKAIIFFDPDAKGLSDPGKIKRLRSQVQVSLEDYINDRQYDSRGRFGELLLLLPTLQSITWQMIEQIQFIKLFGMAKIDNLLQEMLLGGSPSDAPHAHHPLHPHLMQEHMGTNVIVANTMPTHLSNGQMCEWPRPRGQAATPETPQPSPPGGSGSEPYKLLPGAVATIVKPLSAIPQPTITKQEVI
# ALR inh: blocks human ALR sulfhydryl oxidase activity | P55789 | purified ALR, DTT oxidation, H2O2 HRP-luminol luminescence | inhibition, % (concentration not given with the values) | 290,000 compounds, 3.8% hits | AID 485317;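 active = mean and each replicate at 75% or more; inconclusive = only one of the two met; inactive = neither met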;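 also: stock transfer was 7.5 nL into about 7.5 µL; 0% = neutral wells and 100% = wells with inactivated enzyme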
# Target sequence (P55789 whole entry, looked up): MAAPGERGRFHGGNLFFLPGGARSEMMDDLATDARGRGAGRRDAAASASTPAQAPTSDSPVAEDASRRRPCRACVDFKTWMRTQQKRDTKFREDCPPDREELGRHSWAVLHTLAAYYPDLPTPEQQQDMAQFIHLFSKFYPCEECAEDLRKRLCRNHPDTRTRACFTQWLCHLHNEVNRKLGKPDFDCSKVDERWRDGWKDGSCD
# RanGTP-Imp inh: disruptors of Ran-importin-beta complex formation – biochemical, FRET, CFP-Ran, YFP-importin-beta, homogeneous, primary screen. cell-free CFP-Ran/YFP-importin-beta FRET ratio. inhibition, % (no concentration beside the values). 300,000 compounds, 1.1% hits;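 active = most replicates above 15%; inconclusive = exactly half above 15%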;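 also: 0% = DMSO wells and 100% = Ran loaded with GDP instead of GTP; wells of about 40 µL received 100 nL stock; the first replicate is given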
# Active calls of the source: *; ? = inconclusive; · = no result given; & = joins results of further samples.
Structure,Vif TR-FRET,Calb FLC,LANA-H2B inh,Beta2AR agonist,HNF4A DNA FP,ALR inh,RanGTP-Imp inh
O=c1c2c(nc3nc[nH]n13)CCC2,3%,-20,1.6,1,-0.6,-3,1.3
O=S(=O)(Nc1cccc(Cl)c1)c1ccc2oc(=S)[nH]c2c1,4%,-6,-4.1,-9,-4.8,44,-0.5
COc1c(OC)c(O)c2c(=O)cc(-c3c(O)cccc3O)oc2c1OC,·,2,-2.7,-10,1.4,97*,0.3
O=S(=O)(Nc1ccc2c(c1)nc1n2CCOC1)c1ccc(Cl)cc1,-3%,-12,-1.0,0,2.8,1,3.9
CC(C)NC(=O)C(Sc1ccccc1)c1ccccc1 (centres undefined),1%,-17,-4.7,4,2.1,-11,4.3
COc1ccc(-c2csc3ncnc(N4CCN(S(=O)(=O)c5ccc(C)c(C)c5)CC4)c23)cc1,-112%,3,0.6,-1,3.1,0,0.5
COc1ccc(CSc2nc(C)[nH]c2[N+](=O)[O-])cc1[N+](=O)[O-],-1%,17,2.9,3,-2.3,100*,4.5
C=CCn1c(C)cc(C(=O)Cn2ncc(Cl)c(Cl)c2=O)c1C,-5%,53,-0.6,42,-28,58,3.6
COc1nnc(-c2ccc(C)c(S(=O)(=O)NCC3CCCO3)c2)c2ccccc12 (centres undefined),·,15,5.6,-1,4.0,-6,1.4
COc1cccc(CNC(=O)CN(C)S(=O)(=O)c2ccc(Br)s2)c1,·,1,-0.4,9,0.5,-7,-5.0
COc1ccc(Cl)cc1C(=O)Nc1ccc2nc3n(c(=O)c2c1)CCCC3,2%,9,-1.5,0,-2.4,10,7.6
CCCc1cc(C(=O)N2CCN(S(=O)(=O)c3ccc(OC)c(OC)c3)CC2)cs1,1%,-13,4.0,-12,1.5,-4,9.3
O=C(CCc1nnc(CCCCc2ccccc2)o1)N1CCN(CCO)CC1,?,-1,2.3,3,0.2,-8,-6.7
CC(=C/c1ccccc1)/C=C1/SC(N2CCOCC2)=NC1=O,?,8,-3.5,1,-2.3,62,-1.5
CN1CCC(=O)N([C@H](CSc2ccc(Br)cc2)Cc2ccccc2)CC1,·,17,-0.3,6,2.3,·,?
Cc1nc(N2CCC(C)CC2)c2oc3ccccc3c2n1,-2%,6,-6.2,-3,-0.6,-5,0.0
CCOC(=O)c1c(C)[nH]c(N=Nc2ccccc2Cl)c1C,·,-2,-3.9,-5,2.2,2,-6.2
COc1cc2c(cc1CN1CCN(C(=O)c3cc(OC)c(OC)c(OC)c3)CC1)OCO2,·,-1,11,-2,-1.3,-14,-3.5
O=C(CCC(=O)Nc1ccccc1)NNC(=O)c1ccco1,7%,-14,-1.0,0,1.5,-18,-0.5
COc1cc2c(cc1OC)C(COc1ccc3c(C)cc(=O)oc3c1)N(C(=O)c1ccco1)CC2 (centres undefined),-15%&8%,-3,-5.0,-5,2.7,11,-1.4
CC(=O)c1ccc(N2CCN(C(=O)/C=C/c3cccs3)CC2)cc1,·,2,-1.8,-2,-1.6,-2,0.1
CCc1ccc(C(=O)NNC(=O)c2cccc(N3C(=O)CCC3=O)c2)cc1,-13%,2,2.5,0,1.1,1,6.1
CC(C)(CNCC(O)c1ccccc1)N1CCOCC1 (centres undefined),25%,-1,-1.9,-9,-3.6,-2,0.2
Cc1cccc(N(CC(=O)NCC2CCCO2)C(=O)CNS(=O)(=O)c2ccc(Cl)cc2)c1 (centres undefined),-3%,4,2.7,-5,0.7,·,1.0
c1ccc(CNc2cnccn2)cc1,3%,-23,1.9,-13,0.1,50,3.9
COc1cccc(-c2nc(CS(=O)(=O)CC(=O)NCc3ccccc3OC)c(C)o2)c1,4%,-4,0.7,-1,0.1,45,0.3
O=C(O)CC(NC(=O)C1c2ccccc2Oc2ccccc21)c1ccc(OC2CCCC2)cc1 (centres undefined),·,-5,-5.1,-1,0.4,-1,2.1
COc1cc(NC(=O)COc2cccc(OC)c2)cc(OC)c1,23%,6,-2.7,7,-1.4,-8,3.1
CCOC(=O)N1CCN(S(=O)(=O)c2ccc(C(=O)Nc3sc4c(c3C(=O)OC)CCN(C)C4)cc2)CC1,·,-1,0.0,-5,6.8,-45,8.7
COc1ccc(-c2c(C#N)c(N)nc3c2CCC3)cc1,0%,4,-6.5,-5,-0.8,·,-6.2
O=C(O)C1C2C=CC(O2)C1C(=O)NCc1ccc2c(c1)OCO2 (centres undefined),27%,-13,0.4,3,1.6,-21,4.2
CC1=Nc2cc(C(=O)NCCN3CCOCC3)ccc2Sc2c(C)ccc(C)c21,·,-2,-2.1,-5,4.2,-5,-2.2
CCN(CC(=O)Nc1ccccc1C(F)(F)F)C(=O)C1CC(=O)N(Cc2ccccc2)C1 (centres undefined),0%,-6,6.3,-3,3.8,·,1.4
CCCc1cc(=O)[nH]c2nnc(SCC(=O)NC3CCCC3)n12,5%,-11,-7.3,-9,-0.9,2,0.7
CCn1c(=N)n(CC(=O)c2ccco2)c2ccccc21,12%,18,2.9,-4,1.2,-7,6.8
Cc1ccccc1N=C1NC(=O)CC(c2ccccc2)S1 (centres undefined),9%,-2,-4.0,-10,0.3,-6,0.1
Cc1cccc(NC(=O)CNC(=O)C23CC4CC(CC(Cl)(C4)C2)C3)n1,4%,5,0.2,-2,2.2,-1,3.1
CSc1ccc(CN(C)Cc2nc3ccccc3c(=O)[nH]2)cc1,·,-1,3.3,3,-0.8,-2,2.0
CCn1cc(C(=O)N2CCN(Cc3ccc4c(c3)OCO4)CC2)c2cc(OC)c(OC)cc2c1=O,?,-5,-1.4,-13,4.8,-5,-2.3
Cc1oc(-c2cccs2)[n+]([O-])c1C,-5%,2,0.6,5,1.2,-9,3.2
O=C(c1cnc2ccc3ccccc3c2c1)c1cc(F)ccc1O,?,-2,0.6,-5,2.2,·,0.8
CSc1ccccc1NC(=O)COC(=O)/C=C/c1ccco1,-5%,·,7.8,3,-8.6,3,·
COc1ccc(C(=O)Nc2ncccc2C)cc1S(=O)(=O)N1CCOCC1,6%,-5,3.8,-4,2.1,-3,-1.8
CCOC(=O)C1=C(C)NC(C)=C(C(=O)OCC)C1C(=O)O,-4%,-5,-3.0,0,4.0,5,·
O=C(c1ccccc1Cl)N1CCNCC1,5%,-27,3.9,-1,2.0,-9,3.5
COc1ccc(O)c(C2=Nc3ccccc3N=C(c3cccs3)C2)c1,3%,2,-4.9,-2,3.4,3,?
Cc1cccc(C)c1NC(=S)NCc1ccncc1,9%,-5,0.4,1,2.7,18,0.1
CCOC(=O)CN1C(=O)NC2(CCCc3ccccc32)C1=O (centres undefined),·,1,0.6,1,1.3,·,2.0
CC(=O)Nc1ccccc1-c1ccc(C)o1,1%,-2,-1.4,0,-1.6,-14,2.1
O=c1[nH]c2nc(Br)[nH]c(=O)c2[nH]1,-7%,·,·,1,1.0,·,·
O=C(N/N=C/c1cccnc1)c1cc2ccccc2o1,·,-4,-0.3,-6,0.5,-20,-3.2
Cn1c(=O)n(C)c2cc([N+](=O)[O-])c(N3CCN(C(=O)c4ccc(F)cc4)CC3)cc21,-9%,-13,2.0,3,-2.4,-5,2.9
O=C(CSc1nc(-c2ccccc2)nc2c1Cc1ccccc1O2)Nc1ccc(C(=O)O)cc1,-3%,·,·,-8,-63,·,·
O=C(CSc1nnc(-c2ccco2)n1-c1ccccc1)NCc1ccco1,1%,-2,-1.6,-8,-0.9,-5,0.2
Cc1[nH]c2ccccc2c1SCc1ccccc1,5%,-3,4.6,13,5.2,99*,2.6
Cc1nc(CN2CCN(C(=O)c3ccc(Br)cc3)CC2)cs1,-5%,-1,-6.6,3,-1.6,-3,3.7
CCCCC1(C)NC(=O)c2c(C)sc(C(=O)OCC)c2N1 (centres undefined),25%,?,3.6,8,1.0,-2,-2.5
COc1ccc(OCCn2nnc(-c3ccc(Cl)cc3)n2)cc1,17%,10,-7.7,1,-3.6,1,-3.4
Cc1ccc2[nH]c(=O)c(-c3nc4cc(C)ccn4c3NCc3ccco3)cc2c1,2%,-7,3.2,1,1.8,8,?
Cc1ccc(NC(=O)C(C)N2CCOCC2)c(C(=O)c2ccccc2)c1 (centres undefined),-1%,4,-1.1,-7,-1.1,-12,4.8

# Part of the list above in order of number of heavy atoms, lowest first:
Structure,Vif TR-FRET,Calb FLC,LANA-H2B inh,Beta2AR agonist,HNF4A DNA FP,ALR inh,RanGTP-Imp inh
Cc1cccc(C)c1NC(=S)NCc1ccncc1,9%,-5,0.4,1,2.7,18,0.1
COc1cccc(CNC(=O)CN(C)S(=O)(=O)c2ccc(Br)s2)c1,·,1,-0.4,9,0.5,-7,-5.0
CCn1cc(C(=O)N2CCN(Cc3ccc4c(c3)OCO4)CC2)c2cc(OC)c(OC)cc2c1=O,?,-5,-1.4,-13,4.8,-5,-2.3

# Next records.
Structure,Vif TR-FRET,Calb FLC,LANA-H2B inh,Beta2AR agonist,HNF4A DNA FP,ALR inh,RanGTP-Imp inh
CCCCn1c(SCC(N)=O)nnc1-c1ccco1,3%,-2,1.5,-10,1.6,-5,0.8
CC(C)C(=O)NC(NC1CCS(=O)(=O)C1)C(Cl)(Cl)Cl (centres undefined),6%,-22,1.0,5,1.2,·,·
Cc1cccc(OCC(=O)NCC(=O)N/N=C/c2ccc(O)cc2O)c1,5%,0,1.8,11,3.4,7,-1.4
CC(=O)C1=C(C)NC(C)=C(C(C)=O)C1c1ccc(-c2ccccc2Cl)o1,3%,·,·,-3,1.0,·,·
N#C/C(=C/c1cccnc1)c1ccccc1,1%,-9,-2.9,-10,1.3,-5,1.8
O=C(Oc1cc(Cl)ccc1Cl)c1ccc(N2CCOCC2)c([N+](=O)[O-])c1,·,-6,1.7,3,-2.1,10,1.0
CC(O)Cn1ccccc1=N (centres undefined),0%,8,3.9,-1,-1.7,-2,-0.2
Cn1c2c(c(=O)n(C)c1=O)C(c1cccc(F)c1)C(C#N)=C(N)O2 (centres undefined),-2%,-4,1.7,-3,-0.1,-2,4.1
Cc1cc(C(=O)CSc2ncnc3ccccc23)c(C)n1C1CC1,·,·,-0.7,-2,0.5,98*,·
COc1ccc(/C=N/NC(=O)CC#N)cc1Oc1nc(Cl)ncc1F,4%,-6,0.4,3,-5.7,-1,4.9
CN(Cc1ccccc1)C(=O)c1ccccc1NC(=O)C1CC1,6%,13,-0.6,-3,2.1,-14,9.0
COC(=O)c1cc(Oc2ccc(C(=O)OC)cc2N)cc(C(=O)OC)c1,7%,21,1.7,4,3.8,-10,-1.3
CC(=O)N1CCCc2cc(S(=O)(=O)N3CCCC(C(=O)Nc4cccc(C)c4)C3)ccc21 (centres undefined),5%,10,-1.5,-1,3.2,-2,-1.7
Cn1cc(Br)c(-c2cccc(NC(=O)CC(C)(C)CC(=O)O)c2)n1,-5%,-7,3.8,0,-0.9,5,2.9
CN(C(=O)COC(=O)c1ccc(Cl)cc1N)C1CCS(=O)(=O)C1 (centres undefined),-4%,-3,-2.2,2,3.5,-2,?
CCc1cccc2c1NC(=O)C21OCCO1,-2%,4,-2.5,-2,-2.0,-20,6.4
CCn1nc(C)cc1C(=O)N1CCCC(C(=O)c2ccc3ccccc3c2)C1 (centres undefined),25%,-4,0.7,1,3.0,-3,-1.1
CC(=O)N1CCN(S(=O)(=O)c2ccc(S(=O)(=O)NC3CC3)cc2)CC1,0%,3,4.8,-5,5.7,15,0.0
Cc1ccc(Cl)cc1NC(=O)COC(=O)C1CCCC1,-6%,3,0.9,6,1.6,4,4.7
COc1ccc(Br)cc1/C=N/NC(=O)CN1CCN(Cc2ccccc2)CC1,2%,1,1.5,-4,0.2,6,0.8

# High-throughput results deposited in PubChem BioAssay by several laboratories.
